gsp antag: antagonists of gsp mutant (McCune-Albright syndrome). gsp-mutant cells, cAMP HTRF, 30 min; control for the full effect not named in the record. Potency, µM (highest dose often 76.9 µM), for inactives: top-dose activity change, negative = inhibition, most hits filed as inhibitors. 340,000 compounds, 0.4% hits. AID 624288; active = falling curve of any shape with a large fitted effect; inconclusive = falling curve, mostly with a smaller effect; inactive = flat or rising curve; cell line not stated here;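 further: intracellular cAMP measured with PDE inhibitor Ro 20-1724 present during compound exposure; potency means the concentration at half of the fitted maximal effect; on the % scale 0 is the no-effect control and ±100 the full control effect; nearly all actives have a fitted effect of over 65% in size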
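Cells, 2000/well, grown 16–24 h in DMEM 10% FBS with 0.5 mg/ml G418, then compounds plus […] (300 uM addition stock), 30 min at 37C. cAMP read by HTRF (cAMP-d2 and anti-cAMP antibody-K in lysis buffer) after 30 min RT.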
D2 ag: agonists of human D2 dopamine receptor (beta-arrestin). P14416. DiscoveRx PathHunter D2 beta-arrestin, luminescence, 90 min; 100% = 57 uM dopamine signal. activation, % (concentration not given with the values). 360,000 compounds, 0.084% hits; in the data active = activation above about 40%; inconclusive = about 15% to 40%; inactive = below about 15%; further: the text of the record calls up to 30% inactive
Target sequence (P14416 whole entry, looked up): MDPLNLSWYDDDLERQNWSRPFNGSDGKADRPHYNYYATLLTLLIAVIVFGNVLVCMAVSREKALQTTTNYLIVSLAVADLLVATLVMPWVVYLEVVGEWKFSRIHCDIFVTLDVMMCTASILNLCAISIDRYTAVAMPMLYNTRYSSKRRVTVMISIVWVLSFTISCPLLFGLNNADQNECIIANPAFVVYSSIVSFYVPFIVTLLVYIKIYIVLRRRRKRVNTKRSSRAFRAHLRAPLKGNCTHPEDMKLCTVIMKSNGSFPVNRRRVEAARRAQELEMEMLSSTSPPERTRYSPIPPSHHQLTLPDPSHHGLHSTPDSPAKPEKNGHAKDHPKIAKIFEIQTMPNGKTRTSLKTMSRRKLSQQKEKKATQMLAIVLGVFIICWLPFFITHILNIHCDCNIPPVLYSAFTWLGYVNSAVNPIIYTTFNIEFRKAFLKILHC
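DiscoveRx PathHunter D2 beta-arrestin cells (2,100/well) attached overnight, then compound-stimulated 90 min at 37 C in HBSS/10 mM HEPES/0.1% Tween-20 buffer; beta-galactosidase complementation read by luminescence after 1 h at ambient temperature. Dopamine 57 uM final (EC100) as control.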
CtBP-E1A inh: inhibitors of CtBP/E1A interaction | activity change, % (no concentration beside the values) | 340,000 compounds, 0.49% hits | AlphaScreen GST-E1A/His-CtBP binding, 1536-well; stronger effect = lower value; control for the full effect not named in the record; in the data active means activity change below about -65%; inconclusive means about -30% to -65%; inactive means above about -30%; further: on the % scale 0 is the no-effect control and ±100 the full control effect
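AlphaScreen with 125 nM GST-E1A and 125 nM His-CtBP (5X stocks) in Tris pH 8.0, 300 mM NaCl, BSA, Tween 20, TCEP. Compounds preincubated 2 h at 37 deg C, then glutathione donor/nickel acceptor beads added for 1 h at 37 deg C in dark.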
gsp ag: activates gsp, the McCune-Albright syndrome mutation | gsp mutant cells, cAMP HTRF, 30 min; control for the full effect not named in the record | Potency, µM (doses to about 76.9 µM), for the others: top-dose activation (cAMP increase), most hits filed as activators | 340,000 compounds, 0.13% hits | AID 624287; active = well fitted activation curve with a large enough effect; inconclusive = small, poorly fitted or top-dose-only effect, or another doubt; inactive = no such curve, though single readings can be large or run the other way; cell line not stated here;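 further: phosphodiesterase inhibitor Ro 20-1724 added with compounds to block cAMP breakdown; potency means the concentration at half of the fitted maximal effect; nearly all actives have a fitted effect of over 60% in size; about a fifth of the inactives were tested at one dose only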
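Cells in DMEM/10% FBS with G418 were pretreated with compounds in DMSO plus […] (300 uM stock) for 30 min at 37C. cAMP was measured by HTRF (cAMP-d2 plus anti-cAMP antibody-K) after 30 min at room temperature.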
D2 potentiator: potentiates the human D2 dopamine receptor allosterically | P14416 | DiscoveRx D2 beta-arrestin cells, luminescence, 90 min; 100% = 57 uM dopamine signal | potentiation, % (test concentration not listed) | 360,000 compounds, 0.23% hits | AID 624464; active = potentiation of 50% or more; inconclusive = 30% to 50%; inactive = 30% or less;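 further: compound concentration not given in the record; tested on top of an EC20 dose of dopamine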
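PathHunter D2 cells, attached overnight at 37 deg C, received compound in DMSO plus dopamine at EC20 (50 nM final) for 90 min at 37 deg C. Beta-arrestin recruitment was read as luminescence after 1 h with detection reagent at ambient temperature.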
Six1-Eya2 blk: blocks human Six1 binding to Eya2 | Q15475+O00167 | AlphaScreen GST-Six1/His-Eya2 binding, biochemical; stronger effect = lower value; control for the full effect not named in the record | activity change, % (concentration not given with the values) | 360,000 compounds, 0.56% hits | AID 651725; in the data active = activity change below about -65%; inconclusive = about -30% to -65%; inactive = above about -30%; further: on the % scale 0 is the no-effect control and ±100 the full control effect
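Homogeneous AlphaScreen proximity assay pairing GST-Six1 with His-tagged Eya2 (added as 5X mix: 250 nM and 500 nM) in 50 mM Tris pH 8.0, 300 mM NaCl, 1 mM TCEP. Glutathione donor and nickel acceptor beads; 1 h, 37 °C, dark.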
Active calls of the source: *; u = inconclusive; x = not tested or not shown; [ ] = remark or other dose.

Results follow in this order: D2 potentiator, Six1-Eya2 blk, CtBP-E1A inh, D2 ag, gsp ag, gsp antag
1	Cc1ccc(NC(=O)N2CCC(C(=O)NCC(C)C)CC2)cc1
→ -10, 3, 1, -2.4, -8%, 8%
2	CCOC(=O)c1cccc(NC(=O)Nc2cc(OC)ccc2OC)c1
→ -37, -20, -20, -0.9, -63%[inhibitor], u
3	COc1ccc(C(=O)Nc2ccccc2C(=O)N/N=C/c2ccc(O)c(OC)c2)cc1
→ u, -13, 9, -3.1, -22%, u
4	COc1ccc(C2=NN(c3nc4ccccc4s3)C(=O)C2)cc1
→ -1, 6, -10, -3.9, -3%[15.4 µM], 2%
5	COc1cc(OC)c([N+](=O)[O-])cc1/C=N/NC(=O)c1ccncc1
→ 0, -5, x, -0.8, -33%[inhibitor], -5%
6	C[C@@H]1CN([C@H](C)CO)C(=O)CCCn2nncc2CO[C@@H]1CN(C)C(=O)c1cc(-c2ccccc2)on1
→ -3, 12, -18, -4.2, -96%[inhibitor], x
7	COc1ccc(CN2C(=O)c3ccccc3C(/C=N\OCc3ccc(F)cc3)C2=O)cc1 (configuration not stated)
→ -3, -4, 2, -2.9, -12%, 8%
8	O=C(CSc1nnc(-c2cccc(S(=O)(=O)N3CCOCC3)c2)n1C1CCCCCC1)NCc1ccccc1
→ -3, 1, 2, -3.0, -53%[inhibitor], -13%
9	CC1CCCCN1Cc1ccc(-c2nn[nH]n2)cc1 (configuration not stated)
→ -7, -5, 3, -0.8, u, 4%
10	COc1cc(CCC(=O)OCC(N)=O)cc(OC)c1OC
→ -17, 13, -12, 1.0, -15%[15.4 µM], -10%
11	CSc1ccc(S(=O)(=O)NCCSc2ccccn2)cc1
→ -1, 1, 3, 0.0, -2%, -14%
12	O=C(NCC(=O)N1CCN(c2ccccc2)CC1)c1cccs1
→ 0, 10, 3, -0.8, 16%, 7%
13	CN(C)c1ccnc(-n2cccc2/C=N/O)c1C#N
→ 3, -5, 12, 3.0, u, 5%
14	CNC(=O)CN1C(=O)c2cccc3cccc1c23
→ -10, 0, 5, 0.5, 18%, -2%
15	Cc1ccccc1NC(=S)NCCSc1ccc(Cl)cc1
→ -4, 0, -3, -2.0, 7%[15.4 µM], -8%
16	CC(=O)OCC(=O)Nc1ccc(Cl)cc1Cl
→ -8, 10, 2, 0.2, -8%, -7%
17	CC(=O)c1cc(-c2ccccc2)n(CC(=O)N2CCCC2)c1C
→ -5, -11, -20, -3.9, -28%, 8%
18	CCOC(=O)/C(C#N)=C/c1c[nH]c2ccccc12
→ 8, -14, -4, 1.0, -10%, -15%
19	CCNC(=O)c1cnn(-c2ccccc2)c1-c1ccccc1
→ -8, 4, x, 0.8, -2%, 3%
20	COc1ccc(CC(=O)Nc2oc(-c3ccccc3)c(-c3ccccc3)c2C#N)cc1OC
→ -9, -10, -4, 0.6, 22%, -2%
21	Cn1c(=O)oc2ccccc2c1=O
→ -6, 0, 7, -0.2, 2%, 10%
22	N[C@@H](Cc1ccccc1)c1nnc(SC/C=C/c2ccccc2)o1
→ -12, 3, 4, -5.7, 5%[15.4 µM], -11%
23	CCOC(=O)N1CCN(c2cc(=O)n(-c3ccc(C)cc3)c(=O)[nH]2)CC1
→ -1, 2, 1, -4.4, 6%, 11%
24	O=C(COC(=O)CCC(=O)c1cccs1)NCCc1ccccc1
→ -1, 8, 5, 2.4, 27%, 3%
25	O=C(NCCN1CCCCC1)Nc1cccc(Cl)c1Cl
→ -25, 1, -8, -4.6, -2%, 9%
26	COc1ccccc1NC(=O)COC(=O)CNC(=O)c1ccc(OC)c(OC)c1
→ 1, -1, 4, -2.4, -11%, -2%
27	Cc1ccc(C(=O)NC(=S)Nc2cc(-c3nc4ccccc4s3)ccc2C)cc1
→ -11, 9, -2, -1.3, -8%, 12%
28	CCc1ccc(/C=N/NC(=O)Cc2cccn2C)cc1
→ -6, -2, -7, 0.4, 7%[15.4 µM], 0%
29	CCN1CCN(C(=O)c2ccccc2N(Cc2ccccc2)S(=O)(=O)c2ccc(OC)cc2)CC1
→ -22, 5, -3, -1.1, -32%[inhibitor], -9%
30	Cc1cccc(NC(=S)NC(=O)Cc2ccccc2)c1C
→ -4, -5, -10, -12, -57%[inhibitor], 7%

Continuation:
Results follow in this order: D2 potentiator, Six1-Eya2 blk, CtBP-E1A inh, D2 ag, gsp ag, gsp antag
31	COc1ccc(C2(O)CCN(C(=O)Cc3cccnc3)CC2)cc1
→ -11, -1, -5, -0.2, -7%, 10%
32	CCc1nc2ccc(C(=O)NCc3ccccc3OC)cn2c1N(CC)CCOC
→ -1, 2, -3, 6.2, x, x
33	Cc1ccc(C(=O)N2CCCCCC2)cc1S(=O)(=O)Nc1ccccc1
→ 0, -4, 5, -1.1, 0%[15.4 µM], -8%
34	COc1cc(OC)c(NC(=O)c2sc3ncn(CC(=O)N4CCN(c5ccccn5)CC4)c(=O)c3c2C)cc1Cl
→ -9, -2, x, -0.1, u, -1%
35	CCOC(=O)c1ccccc1NC(=O)CC1SC(=NC)N(C)C1=O (configuration not stated)
→ -22, -1, 3, -1.1, -76%[inhibitor], 6%
36	Cc1cc(C)nc(NS(=O)(=O)c2ccc(N3C(=O)C4CC=C(Cl)CC4C3=O)cc2)n1 (configuration not stated)
→ -8, 1, -2, -0.6, -5%, -20%
37	COc1ccc(C2=NNC(c3ccco3)=Nc3ccc(F)cc32)cc1
→ -5, -4, 0, 1.6, u, 0%
38	NNC(=O)/C(=C\c1ccc(Br)cc1)NC(=O)c1cccs1
→ -12, 9, -1, -3.8, -6%[15.4 µM], 2%
39	CCN(Cc1ccccc1)C(=O)/C=C/c1ccccc1[N+](=O)[O-]
→ -2, -5, -4, -6.1, u, -14%
40	COC(=O)c1ccc(NC(=O)C(=O)N2CCN(C(=S)NCCc3ccccc3)CC2)cc1
→ -8, 0, -13, 0.3, -2%, -7%
41	O=C(OCc1cc2ccccc2[nH]c1=O)C1CCCCC1
→ 4, -3, 0, -0.6, 5%, 5%
42	CSc1ccc(CN2CCC(CO)(Cc3ccc(Cl)cc3)CC2)cc1
→ -24, -5, -12, 1.6, -3%, 19%
43	COc1ccc(OC)c(NC(=O)CSc2nncc3ccccc23)c1
→ -7, 1, -9, -1.1, -22%[15.4 µM], -2%
44	O=C(Nc1cccc2ccccc12)c1ccc(Br)o1
→ -8, -5, 3, -4.1, 5%[15.4 µM], -7%
45	O=S(=O)(Nc1cccc(-n2cnnn2)c1)c1cc(Br)ccc1Br
→ 2, 0, 1, 2.4, 24%, -29%
46	Cc1ccc(/C=C2\OC(=O)c3ccccc32)cc1
→ -18, 18, 29, -2.9, u, -3%
47	Cc1cc(=O)oc2cc(OC(C)C(=O)NCc3ccccn3)ccc12 (configuration not stated)
→ -8, 4, -6, -3.5, 32%, 6%
48	N#Cc1ncccc1CCc1cccc(Cl)c1
→ 0, 26, 13, 5.4, -11%, -8%
49	COC(=O)[C@@]1(C)[C@H]2C(=O)N(Cc3ccccc3)C(=O)[C@H]2[C@H]2CN=C(SC)N21
→ x, 1, -12, -1.6, x, 9%
50	O=C(NCc1cccc(C(F)(F)F)c1)c1csc(COCCO)n1
→ -5, 6, 6, -1.4, x, x
51	CCOC(=O)N1CCC(NC(=O)c2ccc(CNS(=O)(=O)c3ccc(F)cc3)cc2)CC1
→ -4, -4, -4, -3.7, 0%, 11%
52	COc1ccccc1N1CCN(C(=O)c2cc3cc(Br)ccc3oc2=O)CC1
→ -3, -3, 1, -2.7, -146%[inhibitor], -4%
53	Cc1ccccc1-c1nnc(SCC(=O)N(C)C2CCS(=O)(=O)C2)n1C (configuration not stated)
→ -3, 5, -13, -2.6, u, 1%
54	CN(CC(=O)Nc1cccc(F)c1)C(=O)CCSc1ccc(F)cc1
→ -44, 5, 0, -2.8, 12%, -5%
55	C=C(C)C(=O)N1CCN(C(=O)C(=C)C)c2ccccc21
→ -7, 0, 7, 1.1, -15%, -3%
56	COc1ccc(C(=O)Sc2nncc3ccccc23)cc1
→ -2, 11, 3, 0.8, 1%, -8%
57	O=C(c1ccccn1)N1CCN(c2cccc(C(F)(F)F)c2)CC1
→ -6, 3, x, 4.4, -20%, 2%
58	CC(Nc1ccc(N2CCOCC2)cc1)C(=O)N1c2ccccc2CC1C (configuration not stated)
→ -5, -14, 2, -0.9, 16%, 2%
59	Cc1cccc(C(=O)NNC(=O)C2CCCO2)c1 (configuration not stated)
→ 9, 7, 3, -1.4, u, 10%
60	Cc1sc2nc(CSCC(=O)N(CCC#N)c3ccccc3)[nH]c(=O)c2c1C
→ -10, -6, 7, -3.3, 10%, u

Nothing new here: entries from further up.
Results follow in this order: D2 potentiator, Six1-Eya2 blk, CtBP-E1A inh, D2 ag, gsp ag, gsp antag
31	COc1ccc(C2(O)CCN(C(=O)Cc3cccnc3)CC2)cc1
→ -11, -1, -5, -0.2, -7%, 10%
32	CCc1nc2ccc(C(=O)NCc3ccccc3OC)cn2c1N(CC)CCOC
→ -1, 2, -3, 6.2, x, x
33	Cc1ccc(C(=O)N2CCCCCC2)cc1S(=O)(=O)Nc1ccccc1
→ 0, -4, 5, -1.1, 0%[15.4 µM], -8%
34	COc1cc(OC)c(NC(=O)c2sc3ncn(CC(=O)N4CCN(c5ccccn5)CC4)c(=O)c3c2C)cc1Cl
→ -9, -2, x, -0.1, u, -1%

Next part:
Results follow in this order: D2 potentiator, Six1-Eya2 blk, CtBP-E1A inh, D2 ag, gsp ag, gsp antag
61	O=c1[nH]cnc2c1nnn2Cc1ccccc1
→ -9, 7, -7, -1.2, -4%[15.4 µM], 9%
62	Cc1ccc(NC(=O)C2CCN(C(=O)N3CCOc4ccccc43)CC2)cc1
→ -5, 6, 6, -2.8, -85%[inhibitor], -4%
63	CNC[C@H]1Oc2ccc(NC(=O)Cc3cn(C)c4ccccc34)cc2CC(=O)N([C@@H](C)CO)C[C@H]1C
→ -2, 1, -8, -3.0, x, -2%
64	CCC1CCCCN1CCCNC(=O)c1ccc(CS(=O)(=O)c2ccc(Br)cc2)o1 (configuration not stated)
→ -11, 3, x, -3.7, 15%, 4%
65	O=C(O)c1csc(Br)c1Br
→ -1, 8, 10, 0.8, -4%, 2%

Limited to gsp ag, CtBP-E1A inh and D2 ag, for some of the entries so far:
nr | canonical_smiles | gsp ag | CtBP-E1A inh | D2 ag
43 | COc1ccc(OC)c(NC(=O)CSc2nncc3ccccc23)c1 | -22%[15.4 µM] | -9 | -1.1
44 | O=C(Nc1cccc2ccccc12)c1ccc(Br)o1 | 5%[15.4 µM] | 3 | -4.1

Compound activity (PubChem BioAssay)
